Vaccinia stage – blocks a specific stage of Vaccinia orthopoxvirus infection, primary screen, cell-based, single point; Vaccinia-infected cells, mCherry/Venus stage reporter fluorescence; active compounds read low; some inactives read as strong as hits; AID 1053133, 2014; activity change (mCherry), % (test concentration not listed); hit rate 0.01% among 89,000;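 active = mCherry past -33% and 40 or more points under the early reporter, replicates agreeing; inconclusive = past -33% without that gap or agreement; tested in A549 cells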;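 note: scaled between vehicle wells and reference inhibitor wells; 23 nL library stock went into each well; one replicate is shown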
Vaccinia stage Venus – recorded beside Vaccinia stage, whose call it bears; activity change (Venus), %; measured here: Venus reporter, other viral stage;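 negative = less Venus signal; first of two replicates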
* hit, by the source's call. This is a subset; rates above refer to the full screens.

C[C@@H]1CN([C@H](C)CO)S(=O)(=O)c2ccc(-c3ccc(C#N)cc3)cc2O[C@@H]1CN(C)C(=O)CN(C)C was read as Vaccinia stage 4.0 and Vaccinia stage Venus 2.3.
For C[C@H](CO)N1C[C@H](C)[C@H](CN(C)S(=O)(=O)c2ccc(C#N)cc2)Oc2ncc(-c3ccc(F)cc3)cc2C1=O the results were Vaccinia stage -11.7 and Vaccinia stage Venus -15.4.
For C=CCOC(=O)[C@H]1[C@@H]2C(=O)O[C@@H](c3ccccc3)[C@@H](c3ccccc3)N2[C@@H](c2ccc(OCCOC(=O)[C@@H]3C[C@@H]4C(=O)NCC(=O)N4[C@@H]3c3cccc(OCCO)c3)cc2)[C@]12C(=O)Nc1ccc(I)cc12 the results were Vaccinia stage 16.3 and Vaccinia stage Venus 6.1.
For O=C(Nc1nccs1)[C@@H]1[C@@H](CO)[C@@H]2Cn3c(cccc3=O)[C@H]1N2C(=O)C1CC1 the results were Vaccinia stage 24.4 and Vaccinia stage Venus 11.6.
`CO[C@@H]1CN(C)C(=O)c2cc(NC(=O)c3cnccn3)ccc2OC[C@@H](C)N(C)C[C@@H]1C` gave Vaccinia stage -6.6 and Vaccinia stage Venus 4.1.
For CO[C@H]1CN(C)C(=O)c2cc(NC(C)=O)ccc2OC[C@@H](C)N(CCc2ccccc2)C[C@H]1C the results were Vaccinia stage 11.5 and Vaccinia stage Venus -6.0.
Screening COc1ccc(CN2C[C@H](O)COC[C@H]3O[C@@H](CC(=O)NCc4ccccc4Cl)CC[C@@H]32)cc1 returned Vaccinia stage -4.3 and Vaccinia stage Venus -1.6.
For C[C@@H]1CN([C@@H](C)CO)C(=O)c2ccccc2-c2ccccc2CO[C@H]1CN(C)C(=O)CCN(C)C the results were Vaccinia stage 34.6 and Vaccinia stage Venus 16.0.
For C[C@@H](O)C#Cc1ccc([C@@H]2[C@@H](CO)N3CCCCN(C(=O)c4ccncc4)C[C@@H]23)cc1 the results were Vaccinia stage 22.1 and Vaccinia stage Venus 7.9.
Screening CCCN1[C@H](C(=O)OC)[C@@H](CO)[C@@H]2Cn3c(ccc(C4=CCCC4)c3=O)[C@@H]21 returned Vaccinia stage 11.8 and Vaccinia stage Venus 26.7.
For Cc1noc(C)c1S(=O)(=O)Nc1ccc2c(c1)C(=O)N([C@@H](C)CO)C[C@@H](C)[C@H](CN(C)C(=O)c1ccccc1)OCCCC[C@@H](C)O2 the results were Vaccinia stage 22.2 and Vaccinia stage Venus 10.7.
CCc1nc(N2[C@H](CO)[C@H](c3ccccc3-c3ccc(F)cc3)[C@@H]2C#N)sc1C was read as Vaccinia stage -10.4 and Vaccinia stage Venus -2.7.
Screening C[C@H]1CN([C@@H](C)CO)C(=O)c2cc(NS(=O)(=O)c3ccc(Cl)cc3)ccc2O[C@@H]1CN(C)Cc1ccc2c(c1)OCO2 returned Vaccinia stage 4.6 and Vaccinia stage Venus -2.3.
For COc1ccc(CN(C)C[C@H]2Oc3ccc(NC(=O)Nc4ccc(C(F)(F)F)cc4)cc3CC(=O)N([C@@H](C)CO)C[C@H]2C)cc1 the results were Vaccinia stage inconclusive.
Screening COCC(=O)Nc1ccc2c(c1)OC[C@H](C)NC[C@@H](C)[C@@H](OC)CN(C)C2=O returned Vaccinia stage 5.4 and Vaccinia stage Venus 6.2.
O=S(=O)(N[C@@H]1CC[C@H](CCn2cc(-c3cccnc3)nn2)O[C@@H]1CO)c1ccc(F)cc1 was read as Vaccinia stage 0.7 and Vaccinia stage Venus -1.3.
Screening CCC(=O)N1C[C@H](O)COC[C@@H]2O[C@H](CC(=O)NCC3CCCCC3)CC[C@H]21 returned Vaccinia stage 10.0 and Vaccinia stage Venus 4.3.
`CN1[C@@H]2Cn3c(ccc(-c4ccncc4)c3=O)[C@H]1[C@@H](C(=O)NCCc1ccccc1)[C@@H]2CO` gave Vaccinia stage -0.2 and Vaccinia stage Venus 4.7.
Screening O=C(N[C@H]1CC[C@H](CCNS(=O)(=O)c2ccc(Cl)cc2)O[C@@H]1CO)c1cccc(F)c1 returned Vaccinia stage -10.8 and Vaccinia stage Venus -5.7.
C[C@H](CO)N1C[C@H](C)[C@H](CN(C)Cc2ccc(Cl)c(Cl)c2)Oc2c(NS(=O)(=O)c3ccccc3)cccc2C1=O was read as Vaccinia stage inconclusive.

In the list so far, two have an aryl methoxy group.
Screening COc1ccc(CN2C[C@H](O)COC[C@H]3O[C@@H](CC(=O)NCc4ccccc4Cl)CC[C@@H]32)cc1 returned Vaccinia stage -4.3 and Vaccinia stage Venus -1.6.
For COc1ccc(CN(C)C[C@H]2Oc3ccc(NC(=O)Nc4ccc(C(F)(F)F)cc4)cc3CC(=O)N([C@@H](C)CO)C[C@H]2C)cc1 the results were Vaccinia stage inconclusive.

Other entries
For C/C=C/c1ccc([C@@H]2[C@H](CO)N[C@H]2CN(CC)C(=O)CN2CCOCC2)cc1 the results were Vaccinia stage -7.2 and Vaccinia stage Venus -13.5.
Screening CCCNC(=O)N(C)C[C@H]1Oc2ncc(C#CC3(O)CCCC3)cc2C(=O)N([C@@H](C)CO)C[C@H]1C returned Vaccinia stage 4.5 and Vaccinia stage Venus 7.6.
COc1cccc(-c2cn(CC[C@H]3CC[C@H](NC(=O)CC4CC4)[C@H](CO)O3)nn2)c1 was read as Vaccinia stage 0.5 and Vaccinia stage Venus 10.5.
Cc1noc(C)c1S(=O)(=O)N(C)C[C@H]1Oc2ccc(NC(=O)Nc3ccc(F)cc3)cc2CC(=O)N([C@H](C)CO)C[C@@H]1C was read as Vaccinia stage 19.2 and Vaccinia stage Venus 2.7.
Screening CCS(=O)(=O)Nc1ccc2c(c1)C(=O)N(C)[C@H]1CC[C@H](CC(=O)OC)O[C@H]1CO2 returned Vaccinia stage 15.0 and Vaccinia stage Venus 8.6.
`CC(C)NC(=O)N(C)C[C@@H]1OCc2ccccc2-c2c(n(C)c3ccccc23)C(=O)N([C@H](C)CO)C[C@@H]1C` gave Vaccinia stage 14.9 and Vaccinia stage Venus 12.8.
Screening COc1ccc(C#Cc2ccc3c(c2)O[C@H](CN(C)S(=O)(=O)c2ccccc2F)[C@H](C)CN([C@@H](C)CO)S3(=O)=O)cc1 returned Vaccinia stage -20.3 and Vaccinia stage Venus -9.9.
Screening C[C@@H]1CN([C@@H](C)CO)C(=O)Cc2cc(NC(=O)C3CCCCC3)ccc2O[C@@H]1CN(C)C(=O)Nc1cccc2ccccc12 returned Vaccinia stage 20.9 and Vaccinia stage Venus 14.2.
`Cc1noc(C)c1S(=O)(=O)N(C)C[C@@H]1Oc2ccc(NC(=O)Cc3cn(C)c4ccccc34)cc2CC(=O)N([C@H](C)CO)C[C@H]1C` gave Vaccinia stage 12.4 and Vaccinia stage Venus 10.1.
For CCCNC(=O)N1[C@H](CO)[C@@H]2c3ccccc3N(C(=O)c3ccncc3)C[C@@H]21 the results were Vaccinia stage 15.3 and Vaccinia stage Venus 19.4.
Screening C[C@H]1CN([C@@H](C)CO)C(=O)Cc2cc(NS(=O)(=O)c3cn(C)cn3)ccc2O[C@@H]1CN(C)Cc1ccccc1 returned Vaccinia stage 2.7 and Vaccinia stage Venus -2.2.
For C[C@@H]1CN([C@H](C)CO)C(=O)c2cc(NS(=O)(=O)c3cn(C)cn3)ccc2O[C@@H](C)CCCCO[C@@H]1CN(C)Cc1ccccc1 the results were Vaccinia stage 47.5 and Vaccinia stage Venus 12.1.
`COc1ccc2c3c([nH]c2c1)[C@H](CO)N(S(=O)(=O)c1ccc(C)cc1)CC31CCN(Cc2nccs2)CC1` gave Vaccinia stage -15.1 and Vaccinia stage Venus -11.1.
`CO[C@H]1CN(C)C(=O)c2cc(NC(=O)CC(F)(F)F)ccc2OC[C@@H](C)N(C(=O)C2CCCCC2)C[C@@H]1C` gave Vaccinia stage 4.7 and Vaccinia stage Venus 12.4.
Screening C[C@@H]1CN([C@@H](C)CO)C(=O)Cc2cc(NC(=O)Nc3ccc(F)cc3)ccc2O[C@@H]1CN(C)C(=O)Nc1cccc2ccccc12 returned Vaccinia stage 31.7 and Vaccinia stage Venus 17.9.
Screening O=C(C[C@@H]1C[C@@H]2c3cc(NC(=O)C4CCC4)ccc3O[C@@H]2[C@H](CO)O1)NCc1ccc2c(c1)OCO2 returned Vaccinia stage 8.8 and Vaccinia stage Venus 7.8.
`CC(=O)n1cc([C@H]2C=C(C(=O)NCc3ccccc3)O[C@@H](OCCCCO)C2)c2ccccc21` gave Vaccinia stage 16.2 and Vaccinia stage Venus 28.6.
CO[C@H]1CN(C)C(=O)c2cc(NC(=O)Nc3cccc(F)c3)ccc2OC[C@@H](C)NC[C@@H]1C was read as Vaccinia stage -18.1 and Vaccinia stage Venus -4.3.
Screening COc1ccccc1C#Cc1cnc2c(c1)C(=O)N([C@H](C)CO)C[C@@H](C)[C@@H](CN(C)C(=O)c1ccc3c(c1)OCO3)O2 returned Vaccinia stage inconclusive.
For COc1cc(CN2CC3(CN(C(=O)Nc4cccc(F)c4)C3)c3c(n(C)c4cc(OC)ccc34)[C@@H]2CO)cc(OC)c1 the results were Vaccinia stage -7.6 and Vaccinia stage Venus -9.3.
Screening CC(C)NC(=O)N1CCCCN2[C@H](C1)[C@@H](c1ccc(C#C[C@@H](C)O)cc1)[C@@H]2CO returned Vaccinia stage 22.9 and Vaccinia stage Venus 15.0.
For C[C@@H](NC(=O)C[C@@H]1CC[C@H](NC(=O)CN2CCOCC2)[C@H](CO)O1)c1ccccc1 the results were Vaccinia stage 2.3 and Vaccinia stage Venus 6.9.
For O=C(CN1CCOCC1)NCC[C@@H]1CC[C@H](NS(=O)(=O)c2ccc(F)cc2)[C@H](CO)O1 the results were Vaccinia stage 11.0 and Vaccinia stage Venus 12.0.
Screening CC(C)NC(=O)Nc1cccc2c1O[C@H](CN(C)Cc1ccc3c(c1)OCO3)[C@@H](C)CN([C@@H](C)CO)C2=O returned Vaccinia stage 4.9 and Vaccinia stage Venus -3.6.
`CN(C)CC(=O)N1CCCCN2[C@H](C1)[C@H](c1ccc(-c3ccccc3)cc1)[C@@H]2CO` gave Vaccinia stage 1.9 and Vaccinia stage Venus -0.5.
C[C@H](CO)N1C[C@H](C)[C@H](CN(C)Cc2ccc(C(=O)Nc3ccccc3N)cc2)Oc2c(NC(=O)c3nc4ccccc4s3)cccc2C1=O was read as Vaccinia stage 3.6 and Vaccinia stage Venus 5.5.
`CC(C)CC#Cc1cnc2c(c1)C(=O)N([C@H](C)CO)C[C@H](C)[C@H](CN(C)C(=O)Nc1ccccc1F)O2` gave Vaccinia stage -20.9 and Vaccinia stage Venus -15.9.
For CNC[C@@H]1OCc2cn(nn2)CCCC(=O)N([C@@H](C)CO)C[C@H]1C the results were Vaccinia stage 3.0 and Vaccinia stage Venus 4.6.
For O=C(CN1CCOCC1)N1CCCCN2[C@H](C1)[C@H](c1ccc(/C=C/c3ccccc3)cc1)[C@@H]2CO the results were Vaccinia stage inconclusive.
C#CCNC(=O)C1=C[C@@H](c2ccc(C(F)(F)F)cc2)C[C@@H](OCCCCO)O1 was read as Vaccinia stage 2.6 and Vaccinia stage Venus 3.1.
Screening COc1ccc(NC(=O)Nc2ccc3c(c2)CC(=O)N([C@@H](C)CO)C[C@@H](C)[C@H](CN(C)Cc2ccc(Oc4ccccc4)cc2)O3)cc1 returned Vaccinia stage -23.2 and Vaccinia stage Venus -15.4.
For CC=Cc1ccc2n(c1=O)C[C@@H]1[C@@H](CO)[C@H](C(=O)NCC3CC3)[C@H]2N1Cc1ccncc1 (mixture of isomers) the results were Vaccinia stage 16.5 and Vaccinia stage Venus 10.5.
For C[C@H]1CN([C@@H](C)CO)C(=O)c2cc(C3=CCCC3)cnc2O[C@@H]1CN(C)C(=O)c1ccccc1 the results were Vaccinia stage -6.0 and Vaccinia stage Venus -2.5.
For CC(C)NC(=O)N(C)C[C@H]1OCCCC[C@H](C)Oc2ccc(NC(=O)c3ccncc3)cc2C(=O)N([C@H](C)CO)C[C@@H]1C the results were Vaccinia stage 12.1 and Vaccinia stage Venus 2.5.
Screening COC(=O)[C@H]1[C@H](CO)[C@H]2Cn3c(ccc(-c4ccncc4)c3=O)[C@H]2N1CC1CCCCC1 returned Vaccinia stage -5.4 and Vaccinia stage Venus 15.1.
C[C@@H]1CN([C@H](C)CO)C(=O)c2cc(-c3ccc(C(=O)N(C)C)cc3)cnc2O[C@H]1CN(C)C was read as Vaccinia stage 16.3 and Vaccinia stage Venus 0.6.
O=C(c1cccc(F)c1)N1CCCCN2[C@H](CO)[C@H](c3ccc(C#CC4(O)CCCC4)cc3)[C@H]2C1 was read as Vaccinia stage -18.5 and Vaccinia stage Venus -11.1.
CCCNC(=O)N1CC2(CCN(C(=O)CN(C)C)CC2)c2c(n(C)c3cc(OC)ccc23)[C@H]1CO was read as Vaccinia stage 5.9 and Vaccinia stage Venus 3.9.
For CCCNC(=O)N1CC(=O)N2[C@H](C1)[C@H](c1ccc(-c3cccc(C)c3)cc1)[C@@H]2CO the results were Vaccinia stage 10.1 and Vaccinia stage Venus -13.2.
Cc1nn(C)cc1NC(=O)C[C@@H]1CC[C@H]2[C@H](COc3ccc(NC(=O)C4CCOCC4)cc3C(=O)N2C)O1 was read as Vaccinia stage 19.2 and Vaccinia stage Venus 3.1.
Screening COCC#Cc1ccc2c(c1)O[C@H](CN(C)C(=O)CC1CC1)[C@@H](C)CN([C@H](C)CO)S2(=O)=O returned Vaccinia stage 11.3 and Vaccinia stage Venus 3.8.

No new results follow: an excerpt of the list.
For CCCNC(=O)N1CC(=O)N2[C@H](C1)[C@H](c1ccc(-c3cccc(C)c3)cc1)[C@@H]2CO the results were Vaccinia stage 10.1 and Vaccinia stage Venus -13.2.
Cc1nn(C)cc1NC(=O)C[C@@H]1CC[C@H]2[C@H](COc3ccc(NC(=O)C4CCOCC4)cc3C(=O)N2C)O1 was read as Vaccinia stage 19.2 and Vaccinia stage Venus 3.1.
Screening COCC#Cc1ccc2c(c1)O[C@H](CN(C)C(=O)CC1CC1)[C@@H](C)CN([C@H](C)CO)S2(=O)=O returned Vaccinia stage 11.3 and Vaccinia stage Venus 3.8.

Screening data as filed in PubChem.
